Vaccinia stage: Vaccinia orthopox stage-specific inhibition | Vaccinia-infected cells, mCherry/Venus stage reporter fluorescence; stronger effect = lower value; some inactives read as strong as hits | activity change (mCherry), % (test concentration not listed) | 0.01% of 89,000 active;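 active = mCherry past -33% and 40 or more points under the early reporter, replicates agreeing; inconclusive = past -33% without that gap or agreement; tested in A549 cells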;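 also: scaled between vehicle wells and reference inhibitor wells; 23 nL library stock went into each well; one replicate is shown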
Vaccinia stage Venus: also measured in Vaccinia stage; calls as there; activity change (Venus), %; measured here: Venus reporter, other viral stage;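 negative = less Venus signal; first of two replicates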
The depositor's hits bear a star; ? = inconclusive; . = no result given. Some of the compounds tested; rates above refer to the full screens.

SMILES | Vaccinia stage | Vaccinia stage Venus
O=C(C1CCC1)N1C[C@@H]2N[C@H](C1)C2c1ccc(-c2ccncc2)cc1 (stereo not given in full) | ? | .
COc1ccc(NC(=O)N(C)C[C@@H]2Oc3ccc(NC(=O)Nc4ccccc4)cc3CC(=O)N([C@@H](C)CO)C[C@@H]2C)cc1 | 3 | 6
COCC(=O)N(C)C[C@@H]1Oc2cc(C#C[C@H](C)O)ccc2S(=O)(=O)N([C@H](C)CO)C[C@@H]1C | 6 | 7
O=C(C1CCCC1)N1CC2(C1)[C@@H](c1ccccc1)[C@@H](CO)N2Cc1ccccc1F | -10 | 0
C[C@H](CO)N1C[C@H](C)[C@H](CN(C)S(C)(=O)=O)Oc2cc(-c3cccc(F)c3)ccc2S1(=O)=O | 2 | -7
N#C[C@H]1[C@H](c2ccccc2)[C@@H](CO)N1C(=O)c1ccccc1F | 10 | 8
CCCNC(=O)N[C@H]1CC[C@@H](CCn2cc(C3CCCC3)nn2)O[C@@H]1CO | 0 | 1
COc1ccc(-c2ccccc2[C@H]2[C@@H](CO)N(C(=O)C3CCC3)[C@H]2C#N)cc1 | 10 | 5
CC(C)c1cn(CC[C@@H]2CC[C@H](NC(=O)C3CCCCC3)[C@@H](CO)O2)nn1 | -14 | -7
C[C@@H]1CCCCO[C@@H](CN(C)C(=O)CCCN(C)C)[C@H](C)CN([C@@H](C)CO)C(=O)c2cc(NC(=O)NC3CCCCC3)ccc2O1 | 12 | 9
CN(C)c1ccc2c(c1)[C@H]1C[C@@H](CC(=O)N3CCCCC3)O[C@@H](CO)[C@H]1O2 | 9 | 11
C[C@@H]1CN([C@H](C)CO)C(=O)Cc2cc(NC(=O)Cc3cn(C)c4ccccc34)ccc2O[C@@H]1CN(C)Cc1ccc(C(=O)Nc2ccccc2N)cc1 | -7 | -5
C[C@@H]1CN([C@H](C)CO)C(=O)c2cc(C#CCN(C)C)cnc2O[C@H]1CN(C)S(C)(=O)=O | 18 | 10
O=C(c1cnccn1)N1CC(=O)N2[C@H](CO)[C@@H](c3ccc(C#CC4CC4)cc3)[C@H]2C1 | -1 | 2
O=C(C[C@@H]1CC[C@H](NC(=O)c2cccc(F)c2)[C@H](CO)O1)NCc1ccccc1 | 13 | 14
C[C@@H]1CN([C@H](C)CO)S(=O)(=O)c2ccc(-c3ccncc3)cc2O[C@@H]1CN(C)C(=O)Nc1ccc(C(F)(F)F)cc1 | ? | .
CO[C@H]1CN(C)C(=O)c2cccc(C#N)c2OCC[C@@H]2CC[C@H](OC)[C@@H](CN(C)C(=O)[C@H]1C)O2 | 4 | -5
CO[C@H]1CN(C)C(=O)c2ccc(NC(=O)Cc3ccccc3)cc2OC[C@H](C)N(CC2CC2)C[C@H]1C | -2 | -5
O=C(C[C@@H]1C=C[C@@H](NC(=O)c2ccncc2)[C@H](CO)O1)NCC1CCCCC1 | 3 | -5
Cc1noc(C)c1S(=O)(=O)Nc1ccc2c(c1)CC(=O)N([C@@H](C)CO)C[C@@H](C)[C@H](CN(C)S(=O)(=O)c1ccc(Cl)cc1)O2 | -15 | -8
C[C@H](CO)N1C[C@H](C)[C@H](CN(C)C(=O)Nc2ccccc2)OCCCC[C@H](C)Oc2ccc(NS(=O)(=O)c3cn(C)cn3)cc2C1=O | 24 | 9
COc1ccc(NC(=O)N(C)C[C@H]2Oc3ccc(NC(=O)Cc4ccccc4)cc3CC(=O)N([C@@H](C)CO)C[C@@H]2C)cc1 | 5 | 7
C[C@H]1CN([C@@H](C)CO)C(=O)Cc2cc(NC(=O)Nc3ccc(C(F)(F)F)cc3)ccc2O[C@H]1CN(C)Cc1ccc(Cl)c(Cl)c1 | ? | .
CCC(=O)N1C[C@@H](C)[C@@H](OC)CN(C)C(=O)c2cc(NC(=O)C3CCOCC3)ccc2OC[C@@H]1C | 16 | 6

Part of the list above in a different format:
SMILES	Vaccinia stage	Vaccinia stage Venus
O=C(c1cnccn1)N1CC(=O)N2[C@H](CO)[C@@H](c3ccc(C#CC4CC4)cc3)[C@H]2C1	-1	2
COCC(=O)N(C)C[C@@H]1Oc2cc(C#C[C@H](C)O)ccc2S(=O)(=O)N([C@H](C)CO)C[C@@H]1C	6	7

Additional compounds:
SMILES | Vaccinia stage | Vaccinia stage Venus
COC(=O)C[C@H]1CC[C@H]2[C@@H](COc3ccc(NC(=O)c4cccc(Cl)c4)cc3C(=O)N2C)O1 | 14 | 6
COc1ccccc1CN1[C@@H]2CN(C(=O)c3ccncc3)c3ccccc3[C@@H]2[C@@H]1CO | 22 | 13
CCCN1C[C@H](C)[C@H](OC)CN(C)C(=O)c2cc(NC(=O)NC3CCCCC3)ccc2OC[C@@H]1C | ? | .
O=C(NCC[C@H]1CC[C@@H](NC(=O)C2CC2)[C@H](CO)O1)Nc1ccc(C(F)(F)F)cc1 | 8 | 13
Cc1ccc(S(=O)(=O)Nc2ccc3c(c2)C(=O)N([C@H](C)CO)C[C@@H](C)[C@@H](CN(C)C(=O)Nc2c(C)noc2C)OCCCC[C@@H](C)O3)cc1 | 4 | 3
Cc1ccc(S(=O)(=O)Nc2ccc3c(c2)C(=O)N([C@@H](C)CO)C[C@@H](C)[C@@H](CN(C)C(=O)Nc2c(C)noc2C)O3)cc1 | 14 | 3
C[C@@H](NC(=O)C[C@H]1C=C[C@H](NC(=O)Nc2ccc3c(c2)OCO3)[C@@H](CO)O1)c1ccccc1 | -2 | 4
COc1ccc(NC(=O)N(C)C[C@H]2Oc3ccc(NS(=O)(=O)c4ccccc4)cc3CC(=O)N([C@@H](C)CO)C[C@@H]2C)cc1 | 5 | 4
O=C(C1CCCCC1)N1[C@@H](CO)[C@@H](c2ccccc2)C12CN(Cc1cccc(Cl)c1)C2 | -15 | -5
CN(C)CC(=O)N[C@@H]1C=C[C@@H](CC(=O)NCc2ccccc2F)O[C@H]1CO | 18 | 18
C[C@H](NC(=O)N(C)C[C@@H]1OCc2ccccc2-c2ccccc2C(=O)N([C@H](C)CO)C[C@H]1C)c1ccccc1 | 10 | 3
C/C=C/c1ccc([C@@H]2[C@@H](C#N)N(c3ncc(CC)s3)[C@@H]2CO)cc1 | -14 | -14

By substructure, those above containing an aryl methoxy group
SMILES | Vaccinia stage | Vaccinia stage Venus
COc1ccc(NC(=O)N(C)C[C@@H]2Oc3ccc(NC(=O)Nc4ccccc4)cc3CC(=O)N([C@@H](C)CO)C[C@@H]2C)cc1 | 3 | 6
COc1ccc(-c2ccccc2[C@H]2[C@@H](CO)N(C(=O)C3CCC3)[C@H]2C#N)cc1 | 10 | 5
COc1ccc(NC(=O)N(C)C[C@H]2Oc3ccc(NC(=O)Cc4ccccc4)cc3CC(=O)N([C@@H](C)CO)C[C@@H]2C)cc1 | 5 | 7
COc1ccccc1CN1[C@@H]2CN(C(=O)c3ccncc3)c3ccccc3[C@@H]2[C@@H]1CO | 22 | 13
COc1ccc(NC(=O)N(C)C[C@H]2Oc3ccc(NS(=O)(=O)c4ccccc4)cc3CC(=O)N([C@@H](C)CO)C[C@@H]2C)cc1 | 5 | 4

(next part)
SMILES | Vaccinia stage | Vaccinia stage Venus
CC(C)NC(=O)N[C@@H]1CC[C@H](CC(=O)NC2Cc3ccccc3C2)O[C@H]1CO | -5 | 8
CCCC(=O)N1CC2(CN(C(=O)C3CCC3)C2)c2c(n(C)c3cc(OC)ccc23)[C@@H]1CO | 3 | 5
O=[N+]([O-])c1ccccc1/C=C/c1ccncc1 | -4 | -5
CO[C@@H]1CN(C)C(=O)c2ccc(NC(=O)CC(F)(F)F)cc2OC[C@@H](C)N(C(=O)C2CC2)C[C@@H]1C | 3 | 3
Cc1ccc(S(=O)(=O)N[C@H]2CC[C@H](CCNC(=O)Cc3ccccn3)O[C@@H]2CO)cc1 | -5 | 7
C[C@H]1CN([C@@H](C)CO)S(=O)(=O)c2ccc(C#CCN(C)C)cc2O[C@H]1CN(C)C(=O)C1CCCCC1 | 1 | 3
C[C@@H]1CCCCO[C@H](CN(C)S(=O)(=O)c2ccc(F)cc2)[C@H](C)CN([C@H](C)CO)C(=O)c2cc(NS(=O)(=O)c3cn(C)cn3)ccc2O1 | 9 | 8
COCC(=O)N1[C@@H](C#N)[C@@H](c2ccccc2-c2cccc(C)c2)[C@@H]1CO | 10 | 7
COc1ccccc1NC(=O)N[C@H]1CC[C@H](CCn2cc(-c3ccccc3)nn2)O[C@H]1CO | -26 | -30
Cc1noc(C)c1NC(=O)Nc1ccc2c(c1)C(=O)N([C@H](C)CO)C[C@@H](C)[C@@H](CN(C)S(=O)(=O)c1ccccc1)OCCCC[C@@H](C)O2 | 18 | 4
CC(C)CC#Cc1cnc2c(c1)C(=O)N([C@@H](C)CO)C[C@H](C)[C@@H](CN(C)S(=O)(=O)c1cccs1)O2 | 3 | 7
COC(=O)N(C)C[C@H]1OCc2cnnn2CCCC(=O)N([C@H](C)CO)C[C@@H]1C | 14 | 4
CN(C)C(=O)[C@@H]1[C@@H](CO)[C@@H]2Cn3c(ccc(-c4cccc(F)c4)c3=O)[C@H]1N2Cc1ccccc1 | -5 | 0
Cc1ccc(-c2ccc3c(c2)O[C@@H](CN(C)C(=O)NC(C)C)[C@@H](C)CN([C@H](C)CO)S3(=O)=O)cc1 | -14 | -16
O=C(C[C@@H]1CC[C@@H](NC(=O)c2ccc3c(c2)OCO3)[C@@H](CO)O1)NCc1ccc(Oc2ccccc2)cc1 | -32 | -23
C[C@@H]1CN([C@@H](C)CO)C(=O)c2cc(NC(=O)NC3CCCCC3)ccc2O[C@@H]1CN(C)Cc1ccc(Oc2ccccc2)cc1 | ? | .
CN(C)CC(=O)N1[C@H](CO)[C@@H](c2ccccc2)C12CN(CCC(F)(F)F)C2 | -6 | 0
O=C(NC[C@@H]1[C@@H](c2ccccc2)[C@@H](CO)N1Cc1cccnc1)C1CCCCC1 | 11 | 10
C[C@H](CO)N1C[C@H](C)[C@@H](CN(C)S(=O)(=O)c2ccc(F)cc2)Oc2ccc(NS(=O)(=O)c3ccc(Cl)cc3)cc2CC1=O | -33 | -13
CO[C@H]1CN(C)C(=O)c2ccc(NC(=O)Nc3cc(F)ccc3F)cc2OC[C@H](C)N(C)C[C@@H]1C | -9 | -9
COC(=O)C[C@@H]1CC[C@@H]2[C@@H](COc3ccc(NC(=O)c4ccc(F)c(F)c4)cc3C(=O)N2C)O1 | -8 | -5
C[C@@H]1CN([C@@H](C)CO)C(=O)c2cc(/C=C/c3ccccc3)cnc2O[C@@H]1CN(C)Cc1cncnc1 | 8 | 3
C/C=C/c1cnc2c(c1)C(=O)N([C@H](C)CO)C[C@@H](C)[C@H](CN(C)C(=O)C1CCOCC1)O2 | 11 | 6
CC(C)C#Cc1ccc([C@H]2[C@H](CO)N3CCCCN(C(=O)c4ccc(F)cc4)C[C@@H]23)cc1 | -32 | -36

Whole records as entered above. Screens in order: Vaccinia stage	Vaccinia stage Venus
Entry for C/C=C/c1cnc2c(c1)C(=O)N([C@H](C)CO)C[C@@H](C)[C@H](CN(C)C(=O)C1CCOCC1)O2 : 11	6
Entry for C[C@H](CO)N1C[C@H](C)[C@@H](CN(C)S(=O)(=O)c2ccc(F)cc2)Oc2ccc(NS(=O)(=O)c3ccc(Cl)cc3)cc2CC1=O : -33	-13
Entry for CN(C)CC(=O)N1[C@H](CO)[C@@H](c2ccccc2)C12CN(CCC(F)(F)F)C2 : -6	0
Entry for COC(=O)C[C@@H]1CC[C@@H]2[C@@H](COc3ccc(NC(=O)c4ccc(F)c(F)c4)cc3C(=O)N2C)O1 : -8	-5

The list goes on:
SMILES | Vaccinia stage | Vaccinia stage Venus
C[C@@H](NC(=O)C[C@H]1C[C@@H]2c3cc(NC(=O)NC4CCCC4)ccc3O[C@@H]2[C@H](CO)O1)c1ccccc1 | 4 | 5
C[C@@H]1CN([C@@H](C)CO)C(=O)c2cc(NC(=O)c3ccccc3)ccc2O[C@@H](C)CCCCO[C@H]1CN(C)S(=O)(=O)c1ccccc1 | -6 | -12
CCC(=O)Nc1ccc2c(c1)C(=O)N(C)[C@H]1CC[C@H](CC(=O)NC3CCCC3)O[C@H]1CO2 | 3 | 1
CO[C@@H]1CN(C)C(=O)c2cc(NC(=O)c3ccccc3)ccc2OC[C@@H](C)NC[C@H]1C | -6 | 2
Cc1noc(C)c1NC(=O)Nc1cccc2c1O[C@H](CN(C)Cc1ccc(C(F)(F)F)cc1)[C@H](C)CN([C@@H](C)CO)C2=O | -19 | -20
CC(C)NC(=O)Nc1cccc2c1O[C@@H](CN(C)S(C)(=O)=O)[C@H](C)CN([C@H](C)CO)C2=O | 8 | -10
OC[C@@H]1[C@H](c2ccc(Br)cc2)[C@H]2CN(Cc3cncnc3)CCCCN12 | 42 | 5
COc1ccc(S(=O)(=O)N(C)C[C@@H]2Oc3ccc(NS(=O)(=O)c4cccs4)cc3CC(=O)N([C@@H](C)CO)C[C@@H]2C)cc1 | -7 | 9
CCC(=O)N1[C@H](CO)[C@@H](c2ccccc2)C12CN(C(=O)NC1CCCC1)C2 | -7 | 2
C[C@@H]1CN([C@H](C)CO)C(=O)Cc2cc(NC(=O)CCN3CCOCC3)ccc2O[C@H]1CN(C)C(=O)Nc1cccc2ccccc12 | 3 | 6
CS(=O)(=O)N1CC(=O)N2[C@H](CO)[C@@H](c3ccc(C#CCC4CCCC4)cc3)[C@H]2C1 | -22 | -13
C[C@@H]1CN([C@@H](C)CO)C(=O)c2c(c3ccccc3n2C)-c2ccccc2CO[C@H]1CN(C)C(=O)c1cc(Cl)cc(Cl)c1 | ? | .
Cc1ccc(S(=O)(=O)Nc2cccc3c2O[C@@H](CN(C)C(=O)NC2CCCCC2)[C@@H](C)CN([C@@H](C)CO)C3=O)cc1 | -10 | -6
COc1ccc2c3c([nH]c2c1)[C@H](CO)N(Cc1nccs1)CC31CCN(Cc2ccncc2)CC1 | 10 | -2
COc1cccc(C#Cc2ccc([C@H]3[C@H]4CN(S(=O)(=O)c5ccccc5C)CC(=O)N4[C@H]3CO)cc2)c1 | -3 | -27
COc1ccccc1-c1ccc([C@H]2[C@@H](CO)N3CCCCN(S(=O)(=O)c4cn(C)cn4)C[C@H]23)cc1 | ? | .
CCC(=O)Nc1ccc2c(c1)C(=O)N(C)[C@H]1CC[C@@H](CC(=O)N3CCCCC3)O[C@@H]1CO2 | 14 | 11
O=C(Nc1ccc(F)cc1)N[C@H]1C=C[C@@H](CC(=O)N2CCOCC2)O[C@@H]1CO | -4 | -1

From PubChem BioAssay
